# CSC inhib = cancer stem cell inhibition | 300,000 tested, 1.1% active | inhibition, % at 7.5 µM | cancer stem cell-like cells viability, luminescence;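 active means mean at 75% or more and at least half the replicates too; inconclusive means mean and replicates disagree; tested in HMLE shEcad cells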;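 further: 0% = median of negative and 100% = median of positive control wells; the first replicate is given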
# eIF4H FP inh = inhibitors of RNA binding by human eIF4H; eIF4H fluorescence polarization binding assay; 290,000 tested, 0.94% active; Q15056; inhibition, % at 35 µM; AID 2012;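 active means 50% or more with normal probe brightness, or confirmed in later tests; inconclusive means above 50% with abnormal brightness, or retests that disagree; inactive means below 50% or failed in later tests; about a fifth of its hits are not listed in these tables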;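 further: calls also rest on retests at 20 µM and on dose response follow-up; 0% = protein and probe with vehicle and 100% = probe without protein; strong numbers were not always called active; many hits fall short of the cut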
# Rce1 inh = yeast Ras-converting enzyme inhibition | calls only | yeast membranes, quenched prenylated peptide cleavage fluorescence | AID 2563 | 290,000 tested, 0.27% active;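 active means fall in fluorescence gain of 50% or more versus controls, with final raw signal at or below 3038400; inconclusive means same 50% fall but final raw signal above 3038400; inactive means fall in fluorescence gain under 50%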;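 further: plate controls were neutral control wells for no effect and wells lacking membranes for full effect; tested at 10 µM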
# Target sequence (Q03530 whole entry, looked up): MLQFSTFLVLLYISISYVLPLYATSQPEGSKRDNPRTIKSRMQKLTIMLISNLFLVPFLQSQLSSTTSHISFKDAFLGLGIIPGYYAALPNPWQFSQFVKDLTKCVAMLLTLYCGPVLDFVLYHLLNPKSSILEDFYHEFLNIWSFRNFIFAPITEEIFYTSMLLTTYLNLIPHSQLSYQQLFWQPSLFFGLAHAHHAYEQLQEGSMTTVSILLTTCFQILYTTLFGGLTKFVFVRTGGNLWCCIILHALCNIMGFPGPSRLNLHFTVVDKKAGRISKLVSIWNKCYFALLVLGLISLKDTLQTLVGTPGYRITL
# MT1-MMP act inh = inhibitors of human MT1-MMP activation; HT1080 RFP-PRO-GFP cells, GFP/RFP ratio fluorescence, overnight; percent of plate control window, DMSO zero; 360,000 tested, 0.061% active; P50281; GFP/RFP ratio change, % at 20 µM;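 active means GFP/RFP ratio change of at least 30% with cell ATP level not reduced by more than half and red fluorescence within 50% of control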; further: strong numbers were not always called active
#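 Assay system: RFP-PRO-GFP reporter HT1080 cells; read-out basis: GFP/RFP fluorescence ratio; benchmarks: DMSO wells and RFP-L50D-GFP cells; doses: 20 µM single dose, 1% DMSO; schedule: overnight cell settling, then overnight compound exposure, 37 °C, 5% CO2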
# PABP polyA inh = PABP-poly(A) binding inhibition. PABP-poly(A) RNA binding, fluorescence polarization. P11940. inhibition, % at 35 µM. AID 2014. 290,000 tested, 1% active;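 active means 50% or more with normal probe brightness, or confirmed in later tests; inconclusive means above 50% with abnormal brightness, or retests that disagree; inactive means below 50% or failed in later tests; about a fifth of its hits are not listed in these tables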;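 further: calls also rest on retests at 20 µM and on dose response follow-up; controls were probe without protein and protein plus probe with vehicle; some compounds called inactive have numbers as strong as hits; many hits fall short of the cut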
# Target sequence (P11940 whole entry, looked up): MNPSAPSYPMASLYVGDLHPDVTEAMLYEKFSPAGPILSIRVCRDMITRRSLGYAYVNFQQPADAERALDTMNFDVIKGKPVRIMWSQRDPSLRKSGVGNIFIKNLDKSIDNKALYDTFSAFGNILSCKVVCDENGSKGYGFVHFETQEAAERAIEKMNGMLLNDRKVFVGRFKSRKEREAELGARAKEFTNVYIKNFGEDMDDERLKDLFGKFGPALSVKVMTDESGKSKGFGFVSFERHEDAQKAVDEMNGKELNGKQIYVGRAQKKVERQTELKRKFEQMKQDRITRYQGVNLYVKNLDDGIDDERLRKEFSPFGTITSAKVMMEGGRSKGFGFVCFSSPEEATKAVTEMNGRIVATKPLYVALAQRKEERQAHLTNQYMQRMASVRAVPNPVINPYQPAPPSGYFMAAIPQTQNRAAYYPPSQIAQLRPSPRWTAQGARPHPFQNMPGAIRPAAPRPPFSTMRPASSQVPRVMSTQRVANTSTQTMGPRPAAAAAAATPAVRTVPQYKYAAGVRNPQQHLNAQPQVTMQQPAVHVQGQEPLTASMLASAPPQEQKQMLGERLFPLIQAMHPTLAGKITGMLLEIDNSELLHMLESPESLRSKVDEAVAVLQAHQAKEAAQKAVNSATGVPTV
# Yeast UUG start = yeast start codon fidelity modulation; S. cerevisiae UUG-firefly luciferase reporter, luminescence/redox ratio; activity score, % at 18.7 µM; 350,000 tested, 0.13% active;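 active means replicate mean at a twofold rise or more, about +100% in these data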;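 further: firefly luciferase made from a UUG start codon reports start codon fidelity; reporter light over untreated wells divided by growth signal over untreated wells; some hits fall short of that in this replicate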
# HIV Env fusion = inhibitors of HIV Env-mediated cell fusion. inhibition, % at 12.3 µM. 360,000 tested, 1.1% active. HeLa-JRFL Env/CEM21 cell fusion, luciferase;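 active means mean replicate inhibition score of at least 50 and every replicate individually at or above 50; inconclusive means only one of the two criteria met; inactive means mean below 50 and not all replicates reaching 50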;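 further: 0% = plate neutral controls and 100% = maraviroc near 300 nM; one replicate is shown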
# eIF4H FP inh retest = also measured in eIF4H FP inh; calls as there; inhibition, %; compound at 20 µM; confirmation average;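 mean of two retest wells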
# PABP polyA inh retest = second read-out of PABP polyA inh, no call of its own (marks repeat the call); inhibition, %; compound at 20 µM; confirmation repeats;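 mean of two retest wells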
# MT1-MMP act inh RFP = further read-out of MT1-MMP act inh, marked with its call; RFP signal change, %; measured here: RFP expression control read;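 0 = vehicle wells; hits needed this value within 50% of zero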
# * marks the source's active call; other numbers are inactive results; i = inactive; u = inconclusive; x = no result given; & = joins results of further samples.
SMILES,CSC inhib,eIF4H FP inh,Rce1 inh,MT1-MMP act inh,MT1-MMP act inh RFP,PABP polyA inh,Yeast UUG start,HIV Env fusion,others
Nc1cc(Cl)ccc1C(=O)OCC(=O)NCC1CCCO1 (stereo not given),-4,x,x,-2,-2,x,-6,-1,
Cc1cc(Br)ccc1NC(=O)CNC(=O)CNc1cccc([N+](=O)[O-])c1,x,x,x,0,2,x,-11,2,
CCN(CC)CCCNC(=O)c1cc(-c2ccc(O)cc2)on1,-3,-4,i,9,4,-4,-4,-6,
COc1ccc([C@H]2[C@H](C(=O)C(C)(C)C)N3N=Cc4ccccc4C3[C@]23N=C(c2ccccc2)OC3=O)cc1 (stereo not given in full),7,8,i,-7,0,-4,-1,-13,
Cc1cccc(NC(=O)COC(=O)c2ccc3nc(C)c(C)nc3c2)c1,-5,x,x,0,-1,x,-4,-14,
CC(C)NC(=O)CCCc1ccccc1,-13,-14,i,x,x,3,-16,-69,
O=C(Nc1ncccc1O)c1cccc(S(=O)(=O)N2CCCC2)c1,x,x,i,2,4,x,-5,x,
CCOC(=O)C(NC(=O)c1cccc(Cl)c1)(Nc1sc2c(c1C(N)=O)CCC2)C(F)(F)F (stereo not given),-6,48,i,-6,4,9,x,2,
Cc1ccc(C(=O)NCC(=O)NCC(=O)OCC(=O)c2ccc(F)cc2)cc1,-6,0,i,2,8,13,x,-12,
COc1ccc(NC(=O)N(C)C[C@H]2Oc3ccc(NS(=O)(=O)c4cccs4)cc3C(=O)N([C@H](C)CO)C[C@@H]2C)cc1,x,x,x,3,6,x,8&4,17,
C=C1C(=O)O[C@@H]2C[C@@H](C)[C@@H]3C=CC(=O)[C@@]3(C)[C@@H](OC(C)=O)[C@H]12,85*,53,i,x,x,-2,x,129*,eIF4H FP inh retest=-9;PABP polyA inh retest=8
Cc1oc(-c2ccccc2Cl)nc1CS(=O)CC(=O)NCc1ccc(Cl)cc1 (stereo not given),20,-23,i,-2,-2,-3,-6,8,
CCc1nnc(NC(=O)Cc2ccc(Br)cc2)s1,-16,-7,i,-2,-3,-1,x,2,
N#Cc1c(-c2ccccc2)cc2nc3ccccc3n2c1N,-9,-9,i,6,-5,-16,x,-42,
COc1ccc(-c2[nH]nc(-c3ccccc3)c2-c2nc3ccccc3[nH]2)cc1,4,-5,i,-4,-2,-9,x,12,
CC(=NNC(=O)c1ccncc1)c1ccccc1Cl,x,x,x,-1,1,x,-6,10,
Cc1ccc(NC(=O)COC(=O)Cc2c[nH]c3ccccc23)cc1,x,x,x,-2,3,x,5,19,
Cc1ccc(C)c(OCCN2C(=O)NC3(CCc4ccccc4C3)C2=O)c1 (stereo not given),-10,3,i,4,1,10,x,-1,
COc1ccccc1NC(=O)NC1(C(=O)N2CCC(C)CC2)CCCCC1,-11,10,x,4,4,-8,-13,7,
COc1cc(/C=N/NC(=O)C(=O)NCc2ccco2)cc(Br)c1O,5,84,i,2,-2,6,x,-18,eIF4H FP inh retest=9;PABP polyA inh retest=39
CC1(c2ccccc2)O[C@@H]2C[C@H]3[C@@H]4CCC5=CC(=O)C=C[C@]5(C)[C@@]4(F)[C@@H](O)C[C@]3(C)[C@]2(C(=O)CO)O1 (stereo not given in full),2,0,i,-12,-11,-8,28,-21,
CCOC(=O)CNC(=O)CSc1nnc(SCC(=O)NCC(=O)OCC)s1,-1,-10,i,3,3,2,-19,x,
COCCCNC(=O)c1cc2c(-c3ccc(Cl)cc3)nn(C)c2s1,18,2,i,0,-4,11,-10,2,
Cc1cc(S(=O)(=O)N2CCN(C(=O)CCC(=O)N3CCOCC3)CC2)ccc1Br,70,4,i,-3,1,0,-15,7,
Cc1ccc(NC(=O)C2CCN(S(=O)(=O)c3ccc4c(c3)CC(C)N4C(=O)C3CCC3)CC2)nc1 (stereo not given),18,-8,i,14,-29,-5,-10,11,
CCOC(=O)C1CCCN(Cc2cc(Br)c(OC)cc2OC)C1 (stereo not given),x,-8,i,10,3,16,-7,-40,
Cc1ccc(C(=O)N2CCN(c3ncccn3)CC2)cc1NC1=NC2CS(=O)(=O)CC2S1 (stereo not given),-9,-9,i,3,4,-8,-7,-32,
C=CCNc1ncnc2c1cnn2-c1cccc(C)c1,-5,0,i,3,2,1,-18,-154,
Cc1ccc(C)c(N(CC(=O)NC2CCCC2)C(=O)CNC(=O)c2cccs2)c1,-1,-2,i,-2,-1,-4,-7,25,
O=C(O)c1cc(-c2ccccc2Cl)n(-c2ccc(F)cc2)n1,-12,8,i,0,0,19,-7,-6,
CCOC(=O)C(NC(=O)c1ccccc1Cl)(Nc1ccc(C)c(C)c1)C(F)(F)F (stereo not given),-9,2,i,3,4,-5,x,x,
CCS(=O)(=O)c1c([N+](=O)[O-])ncn1C,6,-2,i,-1,0,-3,x,17,
O=C(Cn1cncn1)NCc1ccc(Cl)cc1,-31,-6,i,1,4,18,x,11,
CN(C)c1ccc(C(=O)OCC(=O)NCC2CCCO2)cc1 (stereo not given),3,-1,i,1,5,7,-14,-71,
COc1ccc(C(CCN2CCCC(C)C2)c2c(OC)cc(OC)c3c(-c4ccccc4)cc(=O)oc23)cc1 (stereo not given),27,-13,i,1,-7,-14,2,-107,
COC(=O)c1cn(NC(=O)c2cc([N+](=O)[O-])ccc2F)c(=O)c2ccccc12,42,7,i,10,13,-1,x,57*,

# Random excerpt: 2 compounds from above
SMILES,CSC inhib,eIF4H FP inh,Rce1 inh,MT1-MMP act inh,MT1-MMP act inh RFP,PABP polyA inh,Yeast UUG start,HIV Env fusion,others
CN(C)c1ccc(C(=O)OCC(=O)NCC2CCCO2)cc1 (stereo not given),3,-1,i,1,5,7,-14,-71,
O=C(Cn1cncn1)NCc1ccc(Cl)cc1,-31,-6,i,1,4,18,x,11,

# Remaining list, next part:
SMILES,CSC inhib,eIF4H FP inh,Rce1 inh,MT1-MMP act inh,MT1-MMP act inh RFP,PABP polyA inh,Yeast UUG start,HIV Env fusion,others
COc1ccc(NC(=S)NCCc2ccc(S(N)(=O)=O)cc2)c(OC)c1,1,-1,i,3,7,-12,x,1,
Nc1[nH]n2c(=O)c3c(nc2c1N=Nc1ccc(Cl)cc1)CCCC3,41,7,i,18,-4,-3,x,x,
Nc1ncc(Br)cc1S(=O)(=O)NCCC(=O)NCc1ccc(F)cc1,9,-6,i,2,4,-5,-7,13,
CC1(C)OC(=O)C2=C(C[C@@H](C3CCCCC3)O[C@H]2c2ccc(Cl)cc2)O1,x,x,x,-2,-6,x,-11,-55,
O=C(CN1CCCCC1)N/N=C/c1ccccc1Br,-2,-2,i,2,4,8,-6,-14,
OCc1nnc2c3ccccc3c(-c3ccccc3)nn12,7,-3,i,-1,1,-1,-11,-30,
CC(=O)Nc1ccc(C(=O)/C=C/c2ccc[nH]2)cc1,-9,38,i,-6,-2,1,x,3,
O=C(NCC(c1ccco1)N1CCCC1)c1cc2ccccc2s1 (stereo not given),2,x,x,2,7,x,-11,x,
O=C(Nc1cccc(C(=O)O)c1)/C(=C\c1ccc2c(c1)OCO2)NC(=O)c1ccc(Br)o1,-6,8,i,3,0,73,x,-28,eIF4H FP inh retest=-14;PABP polyA inh retest=10
Cc1ccc2c(c1)/C(=C/c1ccccc1)C(=O)N2,26,-2,i,-2,-12,2,-9,-16,
CC(C)CN(C(=O)CSc1n[nH]c(-c2cccs2)n1)C1CCS(=O)(=O)C1 (stereo not given),-14,x,x,9,3,x,-10,-4,
O=C(NC1CCCCC1)C1CC(=O)N(c2cccc([N+](=O)[O-])c2)C1 (stereo not given),-4,-4,i,-1,0,u,-5,7,
COc1ccc(CC(=O)NCC(=O)N/N=C/c2sccc2C)cc1,-6,8,i,-2,1,2,-23,8,
O=Cc1ccccc1OCCN1CCCC1=O,-4,-1,i,5,5,8,-11,24,
Cc1cccc(C)c1NC(=O)CN(C)CCc1ccccc1,x,x,x,0,4,x,-2,-13,
N#CC1=C(N)N(c2ncn[nH]2)C2=C(C(=O)CCC2)C1c1ccccc1 (stereo not given),-8,-1,i,3,4,-5,x,-4,
Cc1cc(C(=O)Nc2ccccc2N2CCOCC2)c(C)o1,5,-2,i,-1,-2,3,-6,2,
Cc1ccc(NC(=O)CCOc2ccccc2C)cc1C,12,-10,i,3,2,-1,-4,-12,
CCOc1ccc(C(C(=O)NC2CCCCC2)N(C(=O)c2ccco2)c2ccc(-n3cnnn3)c(C)c2)cc1 (stereo not given),-9,0,i,-3,-5,-2,7,x,
Cc1ccc(C(=O)CC(C(=O)O)P(=O)(c2ccccc2)c2ccccc2)cc1 (stereo not given),-18,7,i,1,4,-2,-11,-71,
O=C(Nc1ccc2c(c1)OCO2)N1CCN(c2ncccn2)CC1,-5,-3,i,1,6,-4,x,x,
Cc1ccc(-c2nc3ncccc3o2)cc1NC(=S)NC(=O)c1ccco1,7,-15,i,0,-1,-8,x,-4,
CCOc1ccc(S(=O)(=O)N2CCCCC2)cc1NC(=O)CC1OC(=O)c2ccccc21 (stereo not given),-3,x,i,0,2,x,1,-3,
Cc1cc(NC(=O)CN(C)CCOc2ccccc2)ccc1Br,5,4,i,-2,-3,-3,x,22,
CCN(CC)c1ccc(NC(=O)/C=C/c2cc(Br)ccc2OC)cc1,x,-12,i,2,-5,3,x,x,
C#CCOC(=O)CCCC(=O)Nc1ccccc1OC,-8,-7,i,5,10,1,-10,-214,
CC12CCC(=O)N1C(C(=O)N1CCN(S(=O)(=O)c3ccc(F)c(F)c3)CC1)CS2 (stereo not given),0,x,i,3,4,x,x,-4,
COc1ccccc1NC(=O)c1nnn(CC(=O)Nc2ccccc2)c1N,-18,3,x,-4,-6,-1,-11,-67,
COc1ccc(N=Cc2c(O)cc(C)oc2=O)cc1,33,6,i,-21,-7,13,-4,12,
Cc1ccccc1-c1nc2ccccc2c(=O)n1/N=C/c1ccc([N+](=O)[O-])cc1,-11,x,i,4,5,x,-6,7,
C/C(CC(=O)Nc1ccc(Cl)cc1)=N\NC(=O)C(=O)N1CCCCC1,-1,9,i,-3,1,10,x,2,
CCCNC(=O)c1csc(Nc2cccc3ccccc23)n1,-12,-2,i,-1,-1,4,-22,31,
Cc1ccc2cc3c(N)c(C(=O)Nc4c(C)[nH]c(=O)[nH]c4=O)sc3nc2c1,x,5,i,-5,0,81*,-24,-12,eIF4H FP inh retest=19;PABP polyA inh retest=53*
CSc1ccc(CN2CCC(C)(Oc3cnc(Cl)c4ccccc34)C2)cc1 (stereo not given),x,x,x,0,5,x,-10,0,
O=C(CSc1ccc(-c2cccnc2)nn1)N1CCCC1,-14,6,i,1,-4,-2,x,11,
CCc1cc[n+](C2=C([O-])c3ccccc3C(=O)/C2=N\S(=O)(=O)c2cccs2)cc1,3,11,i,-2,-2,46,x,u,
Cc1ccc(S(=O)(=O)N(CC(=O)Nc2ccc(C(N)=O)cc2)C(=O)N2CCN(C)CC2)cc1,0,x,i,0,0,x,-18,4,
C=CC[C@H](CC(=O)N(CCO)Cc1ccccc1)C(=O)NC[C@@H](OC(=O)[C@@H](CC=C)Cc1ccc(F)cc1)c1ccccc1,x,x,x,-25,-28,x,-12,-124,
O=C(NCc1ccco1)c1c(O)c2cccc3c2n(c1=O)CCC3,-35,-6,i,-6,0,-2,x,x,
CCCCc1cc(O)c(CCCC)c(O)c1,6,-7,i,-7,-22,-10,-6,x,
NC(=O)COC(=O)CC1CC2CCC1C2 (stereo not given),6,2,i,6,4,u,x,-16,
